# AmpC nodet inh: AmpC beta-lactamase inhibition, detergent-free assay | actives 1.8% (n = 71,000) | P00811 | Potency, µM (series often up to 28.7 µM), inactives show top-dose activity change, negative = inhibition | AmpC nitrocefin hydrolysis, absorbance 480 nm, no detergent; potencies from a single point are estimates; active = falling curve, for most hits resting on a single point; inconclusive = weak or doubtful change; inactive = flat or rising curve; further: % of control where 0% means no effect; about half of the hits show no inhibition at the top dose; a quarter of the inactives give rising signals
# Target sequence (P00811 whole entry, looked up): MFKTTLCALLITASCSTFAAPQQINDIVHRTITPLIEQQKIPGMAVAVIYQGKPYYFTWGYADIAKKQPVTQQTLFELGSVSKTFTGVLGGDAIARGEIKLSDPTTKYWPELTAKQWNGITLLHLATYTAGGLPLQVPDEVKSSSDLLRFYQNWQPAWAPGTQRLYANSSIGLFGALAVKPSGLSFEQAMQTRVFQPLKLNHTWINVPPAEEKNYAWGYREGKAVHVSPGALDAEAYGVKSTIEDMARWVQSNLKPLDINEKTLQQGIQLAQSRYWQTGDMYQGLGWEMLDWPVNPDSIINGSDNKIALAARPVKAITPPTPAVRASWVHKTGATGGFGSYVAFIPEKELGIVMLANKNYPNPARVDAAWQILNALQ
#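 AmpC, 20 mM phosphate pH 7.0; 15 min cpd preinc, RT; start with nitrocefin (800 uM stock); A480 kinetic read, 20 s intervals, 4 min. No-enzyme wells = negative control.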
# * marks the source's active call; other numbers are inactive results; u = inconclusive; [ ] = another dose, or the depositor's remark. Potency means the concentration at half of the fitted maximal effect. Not all compounds are listed; count on the stated rates, not on these rows.
molecule | AmpC nodet inh
CCCCCCSc1nsc(NC(C)=O)n1 | -6%
O=C(Nc1cccc(F)c1)N1CCCC2(CCN(C(=O)c3ccncc3)CC2)C1 | -7%
COC(=O)C1=C(C)N(C)C(C)=C(C(=O)OC)C1c1ccccc1C | 55%
NC(=O)C1CCN(C(=O)C2CCN(S(=O)(=O)c3ccccc3)CC2)CC1 | 12%
COC(=O)CN(c1ccc2c(c1)OCCO2)S(=O)(=O)c1ccccc1 | 16%
O=C(CC1(O)C(=O)N(C/C=C/c2ccccc2)c2ccccc21)c1ccccn1 (stereo not drawn) | 82%
COCCn1c(=O)c(CCc2ccccc2)nc2cnc(N3CCN(C)CC3)nc21 | 91%
COC(=O)c1ccccc1N1C(=O)C2C(C1=O)[C@H]1C=C[C@@H]2C1 (stereo partly drawn) | -2%
O=C(Nc1ccc2nc(-c3ccc(Br)o3)[nH]c2c1)c1ccco1 | -23%
COC(=O)C1(CC(C)C)C=C2C(=C(C)C(=O)C2C)CN1 (stereo not drawn) | 27%
COc1cccc(NC(=O)N2CCC(C(=O)Nc3ccc(C)cc3C)CC2)c1 | 13%
CCOC(=O)c1ccc(COC(=O)CCc2nc3ccccc3[nH]c2=O)o1 | -6%

# Molecules listed so far that have nitrogen in an aromatic ring (6):
molecule | AmpC nodet inh
CCCCCCSc1nsc(NC(C)=O)n1 | -6%
O=C(Nc1cccc(F)c1)N1CCCC2(CCN(C(=O)c3ccncc3)CC2)C1 | -7%
O=C(CC1(O)C(=O)N(C/C=C/c2ccccc2)c2ccccc21)c1ccccn1 (stereo not drawn) | 82%
COCCn1c(=O)c(CCc2ccccc2)nc2cnc(N3CCN(C)CC3)nc21 | 91%
O=C(Nc1ccc2nc(-c3ccc(Br)o3)[nH]c2c1)c1ccco1 | -23%
CCOC(=O)c1ccc(COC(=O)CCc2nc3ccccc3[nH]c2=O)o1 | -6%

# Two entries from above in another layout.
COc1cccc(NC(=O)N2CCC(C(=O)Nc3ccc(C)cc3C)CC2)c1
- AmpC nodet inh: 13%
CCOC(=O)c1ccc(COC(=O)CCc2nc3ccccc3[nH]c2=O)o1
- AmpC nodet inh: -6%

# Further compounds follow.
molecule | AmpC nodet inh
Cc1cc2c(cc1C)NC1(C(=O)Nc3ccccc31)C1=C(CC(C)(C)CC1=O)N2 (stereo not drawn) | 35%
COc1ccc(N2CCN(C(=O)CN3C(=O)C4CC=CCC4C3=O)CC2)cc1 (stereo not drawn) | 11%
CCn1ccnc1C(O)c1cccc(OC)c1 (stereo not drawn) | -6%
CC(C)(C)NC(=O)c1cccc(NC(=O)c2ccc(NC(=O)c3ccco3)cc2)c1 | 4%
Nc1c(C(=O)NC2CC2)c2nc3ccccc3nc2n1-c1ccc2c(c1)OCO2 | 102%
CCOc1ccc(CCNC(=O)C2CCN(c3nnc(-n4cccc4)s3)CC2)cc1OCC | 118%
O=C(NC1CCCCCCC1)C1CCCN(S(=O)(=O)c2cnc[nH]2)C1 (stereo not drawn) | 18%
O=c1[nH]c(=O)n(-c2cccc(Cl)c2)c(O)c1/C=N/c1ccccn1 | -5%
Cc1ccc(-c2cc(C(F)(F)F)n3ncc(C(=O)NCc4ccco4)c3n2)cc1 | -5%
O=C(C1CC(=O)N(C2CCCC2)C1)N1CCN(c2ccc(F)cc2)CC1 (stereo not drawn) | 38%
COc1ccc(NS(=O)(=O)c2ccc3oc(Nc4ccc5c(c4)OCCO5)nc3c2)cc1 | 3.2µM*
COc1ccc(NS(=O)(=O)c2c(C)[nH]c(=O)[nH]c2=O)c(OC)c1 | -14%

# (cont.)
molecule | AmpC nodet inh
N#Cc1c(N)nc(SCC(=O)NC2CCCCC2)c(C#N)c1-c1ccc(Cl)cc1 | u
Cn1c2ccccc2c2nnc(SCc3ccc4nonc4c3)nc21 | 17%
O=C(NCCN1C(=O)CCC1=O)c1ccncc1 | -4%
CCN1CCN(c2ncnc3c2sc(=S)n3-c2ccccc2)CC1 | 22%
Cn1nnnc1SCC(=O)NC(=O)Cc1ccccc1 | 3%
CC1(C)N=C(N)N=C(N)N1c1cccc(CSc2ccccc2)c1 | 9%[5.75 µM]
CCOc1ccc(-n2cc(C(=O)N3CCN(C)CC3)c3cc(OC)c(OC)cc3c2=O)cc1 | 44%
CN(C)CCCNC(=O)CC(c1ccc(F)cc1)c1ccco1 (stereo not drawn) | 117%
CCOC(=O)c1ccc(NC2c3ccccc3C(=O)N2c2cccnc2)cc1 (stereo not drawn) | 62%
COc1ccc(-c2nc3cnc(Nc4ccccc4)nc3n(Cc3cccs3)c2=O)cc1 | -3%
COc1ccc(C(=O)N2CCC(C(=O)Nc3cccc(C)c3)CC2)cc1OC | 65%
COCCc1ccc(OC[C@H](O)CNC(C)C)cc1 | -5%[12.8 µM]

# Remaining list, next part:
molecule | AmpC nodet inh
COC(=O)C1CCN(C(=O)C2CCCCC2)CC1 | -2%
CCNc1ncc2nc(-c3cc(F)cc(F)c3)c(=O)n(Cc3cccs3)c2n1 | -6%
CCOC(=O)c1cnc(SCC(=O)Nc2sc(C)c(C)c2C#N)nc1N | 25%
COCCNC(=O)c1c[nH]c2ccc(OC)cc2c1=O | -7%
COc1ccccc1CC(NC(C)=O)C(=O)NC1CCN(c2nnnn2-c2ccccc2)CC1 (stereo not drawn) | 100%
COc1ccccc1S(=O)(=O)Cc1ccc(C(=O)NCCN2CCCC2)o1 | 2%
COc1ccccc1-c1cc(C(=O)NCc2cccs2)no1 | -17%
Cc1nn(C(=O)c2cccs2)c(N)c1-c1ccccc1 | 15%
CCOC(=O)c1ccc(NC(=O)CCc2ccc(CC)o2)cc1 | -7%
O=c1cc(C(F)(F)F)nc(-c2ccccc2)[nH]1 | -5%
CC1(C)N=C(C(=O)c2ccccc2)N(O)C1(C)O (stereo not drawn) | -3%
CC(C)c1ccc(NC(=O)CSc2nnc(-c3ccccn3)n2C)cc1 | 62%

# (more compounds)
molecule | AmpC nodet inh
COc1cc(NC(=O)c2cnn3c(C)cc(C)nc23)c(OC)cc1Cl | 81%
Cc1ccc(CN(c2ccc(C(=O)N3CCOCC3)cc2)S(C)(=O)=O)cc1 | 84%
CC1(C)C2CCC(C2)C1(C)NC(=O)CN1CCOCC1 (stereo not drawn) | 23%
CN1CCN(CCCN2c3ccccc3Sc3ccc(C(F)(F)F)cc32)CC1 | 29%[5.75 µM]
CC(N=C1NS(=O)(=O)c2ccccc21)c1ccccc1 (stereo not drawn) | -3%
COc1ccc(CCNC(=O)C2CCN(S(=O)(=O)c3cccc4nsnc34)CC2)cc1OC | 44%
CCNc1ncc2nc(-c3cccc(C#N)c3)c(=O)n(CCC#N)c2n1 | -1%
N#CCCn1c(=O)cnc2cnc(OCc3ccccc3)nc21 | 7%
NC(=NC1C2CC3CC(C2)CC1C3)Nc1ccc(I)cc1 (stereo not drawn) | -2%
Cc1ccc(OCn2c(=O)sc3ccccc32)cc1 | -5%
CC(C)NC[C@H](O)COc1cccc2ccccc12 | 21%
COc1ccc(CCN2CC34C=CC(O3)C(C(=O)NCc3ccccc3)C4C2=O)cc1OC (stereo not drawn) | 52%

# Following part.
molecule | AmpC nodet inh
CCCn1c(SCC(=O)NCCc2ccc(Cl)cc2Cl)n[nH]c1=O | 10%
COc1cccc(-c2cc(C(F)(F)F)n3nc(C(=O)N4CCC5(CC4)OCCO5)cc3n2)c1 | 121%
CCCCCc1c(O)c2ccccc2[nH]c1=O | -4%
Cc1ccc(CNC(=O)c2ccc(CN3CCOCC3)cc2)cc1 | 19%
CCC1CCC(NC2CCCCNC2=O)CC1 (stereo not drawn) | 1%
COc1ccccc1-c1nccc(-n2ccnc2)n1 | 7%
COc1cc(C2SCCCCCCCCCCSC(c3ccc(O)c(OC)c3)SCCCCCCCCCCS2)ccc1O (stereo not drawn) | 3%[5.75 µM]
O=C(c1cn(CC(=O)N2CCCC2)c2ccccc12)C1CCCCC1 | 57%
CCOC(=O)C(CC)n1cnc2c(cnn2-c2ccc(Cl)cc2)c1=O (stereo not drawn) | 71%
O=C(CCCCCN1C(=O)CCC1=O)Nc1ncn[nH]1 | 5%
Nc1ccc(-n2c(N)c(C(=O)NCc3ccc4c(c3)OCO4)c3nc4ccccc4nc32)cc1 | 57%
Cc1cccn2c(=O)c(C=Nc3ccccc3)c(NCCO)nc12 | 1%

# Other compounds follow:
molecule | AmpC nodet inh
COc1ccc2[nH]c3c(NCCN4CCCCC4)ncnc3c2c1 | 0%
COc1ccc(-n2c(Cc3cccn3C)nnc2SCC(=O)Nc2ccccc2C)cc1 | 100%
COc1ccccc1N1CCN(C(=O)CN(c2cc(C)cc(C)c2)S(C)(=O)=O)CC1 | 130%
CC12CCC(C(=O)NCCN3CCCCC3)(CC1=O)C2(C)C (stereo not drawn) | -1%
CC(=O)CC(C)C | -6%
O=C(OCc1nc(-c2ccccc2)oc1COC(=O)c1ccco1)c1ccco1 | 36%
CC(C)OCCCNc1nc2c([nH]1)c(=O)n(C)c(=O)n2C | 10%
COc1ccc(-c2cc(C(=O)N3CCN(c4ccccn4)CC3)c3ccccc3n2)cc1 | 86%
CCC1(CC)C(=O)N(C)C(=O)NC1=NCc1ccccc1 | 2%
COc1cccc(NC(=O)COc2ccc(N3CC(C(=O)NCC(C)C)CC3=O)cc2)c1 (stereo not drawn) | 42%
CCc1nnc(NC2=NCCC2)s1 | -4%
Cc1cccc(NC(=O)CN2CCCN(S(=O)(=O)c3ccc(Br)s3)CC2)c1 | 38%

# Remaining list, next part.
molecule | AmpC nodet inh
Cc1noc(C)c1C(=O)N1CCC2(CCN(C(=O)Nc3ccccc3)CC2)CC1 | 23%
c1cncc(-c2noc(C34CC5CC(CC(C5)C3)C4)n2)c1 | 36%
O=C(NCc1ccco1)C1(c2ccccc2)CCCC1 | -9%
Cc1ccc(NCc2nnc(SCC(=O)NCc3ccco3)n2CC2CCCO2)cc1Cl (stereo not drawn) | 104%
COc1ccc(OCc2nn3c(-c4ccco4)nnc3s2)cc1 | 14%
Cc1ccc2c(c1)nnn2C1CCN(CC(=O)Nc2ccccc2N2CCOCC2)CC1 | 90%
CCOc1ccc(N(CC(=O)Nc2ccc(OC)cc2)S(=O)(=O)c2c(C)noc2C)cc1 | -2%
O=C(CSc1nnc(CNC(=O)c2cccs2)o1)NCCc1ccccc1 | 5%
CN(c1ccc(C(=O)N2CCCCC2)cc1)S(=O)(=O)c1ccccc1 | 32%
COCC(=O)N1CCC2(CC1)CCN(C(=O)Nc1cccc(C#N)c1)CC2 | 0%
Cc1ccc2cc(CN(Cc3ccccc3)Cc3nnnn3C3CCCC3)c(=O)[nH]c2c1 | 59%
Cc1cnc(CNc2ccnc(-c3cccnc3)n2)cn1 | 7%

# The list continues:
molecule | AmpC nodet inh
CCn1cc(C(=O)NC2CCC(C)CC2)c(=O)c2cc(S(=O)(=O)N3CCCCC3)ccc21 (stereo not drawn) | 87%
O=C(NCc1ccco1)c1ccc2ccccc2c1 | -14%
COc1ccc(NS(=O)(=O)c2ccc3c(c2)Cc2ccccc2-3)cn1 | -24%
NCCOc1ccccn1 | 1%[5.75 µM]
COc1cc(C2c3c(oc4ccccc4c3=O)C(=O)N2CCN2CCOCC2)cc(OC)c1OC (stereo not drawn) | 59%
CCc1nnc(NC(=O)CSc2nnc(CNc3ccc(Cl)cc3)o2)s1 | -10%
Cc1c(Cl)cnc(NC(=O)COC(=O)C(NC(=O)c2ccco2)C(C)C)c1Cl (stereo not drawn) | 3%
Cc1ccnc(NS(=O)(=O)c2ccc(NC(=O)C3CCCCC3)cc2)n1 | -10%
CN(C)C(=O)CSc1cccc2cccnc12 | -13%
Cc1cccc(S(=O)(=O)C(C#N)c2nc3ccccc3nc2N2CCOCC2)c1 (stereo not drawn) | 3%
Cc1cc(SCNC(=O)c2ccccc2)ncn1 | 6%
CC(C)c1ccc(-c2noc(C3CCCN(C(=O)c4ccc(F)cc4F)C3)n2)cc1 (stereo not drawn) | 64%

# (listing goes on)
molecule | AmpC nodet inh
O=S(=O)(c1ccccc1)c1ccccc1/C=N\O | -1%
Oc1[nH]c2ccccc2c1C=NCC1CCCO1 (stereo not drawn) | 1%
O=C(CN1CCOCC1)Nc1cccc(C(=O)Nc2cccc(C(F)(F)F)c2)c1 | 65%
C=C1C/C(=C\C)C(=O)O[C@@H]2CCN3CC=C(COC(=O)[C@@]1(C)O)[C@H]23 | -6%[12.8 µM]
C[C@H]1CC[C@]2(NC1)O[C@@H]1C[C@@H]3[C@@H]4CC=C5C[C@H](O)CC[C@@]5(C)[C@H]4CC[C@@]3(C)[C@H]1[C@@H]2C | 0%
CCNc1ccc(S(=O)(=O)C(F)(F)F)cc1NC(=O)C12CCC(CC1)C2 | -9%
Cc1ccc2cccc(Oc3cnccn3)c2n1 | 1%
Cc1ccccc1OC(C)c1nc(-c2ccccc2)no1 (stereo not drawn) | -5%
Fc1ccc(C2=Nn3c(Cc4ccccc4)nnc3SC2)cc1 | 22%
Cc1ccc2cc(CN(Cc3nnnn3C3CCCC3)C3CCCCC3)c(=O)[nH]c2c1C | 1%
COC(=O)CC1C(=O)NC2CCCCC2N1C(=O)c1ccccc1 (stereo not drawn) | 10%
COc1ccc(-n2c(Cc3cccn3C)nnc2SCC(=O)Nc2ccc(C)c(Cl)c2)cc1 | 60%

# Continuation:
molecule | AmpC nodet inh
Nc1cccc(-c2nc3ccc(N)cc3s2)c1 | 4%
CN(C)C(=O)c1ccc(Oc2ccc(C(=O)N(C)C)cc2)cc1 | 18%
CCCCN1CCc2c([nH]c3ccccc23)C1=O | 6%
COc1ccccc1-c1nnc(SC/C(O)=C(\C#N)c2nc3ccccc3[nH]2)n1C1CCCCC1 | 16%
C=C(C)C1CC=C(CN2CCC(C(=O)OCC)CC2)CC1 (stereo not drawn) | 4%
Cn1c(-c2ccc(F)cc2)cnc1NCc1ccccc1 | 0%
C=CCOC(=O)N1CCN(c2cccc(C(F)(F)F)c2)CC1 | 25%
CCOc1cc(N2CCOCC2)c(OCC)cc1NC(=O)CCS(=O)(=O)c1ccc(Cl)cc1 | 102%
O=C(O)COCC(=O)Nc1ccc2c(c1)CCC2 | 6%
